# UUG fidelity: alters start codon recognition fidelity in yeast; S. cerevisiae UUG-firefly luciferase reporter, luminescence/redox ratio; activity score, % at 18.7 µM; actives 0.13% (n = 350,000); AID 602363;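 active = replicate mean at a twofold rise or more, about +100% in these data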;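 note: firefly luciferase made from a UUG start codon reports start codon fidelity; reporter light over untreated wells divided by growth signal over untreated wells; some hits fall short of that in this replicate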
# Env fusion inh: HIV envelope-mediated fusion inhibition; AID 651610; HeLa-JRFL Env/CEM21 cell fusion, luciferase; inhibition, % at 12.3 µM; actives 1.1% (n = 360,000);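 active = mean replicate inhibition score of at least 50 and every replicate individually at or above 50; inconclusive = only one of the two criteria met; inactive = mean below 50 and not all replicates reaching 50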;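 note: 0% = plate neutral controls and 100% = maraviroc near 300 nM; one replicate is shown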
# MT1-MMP act inh: inhibitors of human MT1-MMP activation; P50281; HT1080 RFP-PRO-GFP cells, GFP/RFP ratio fluorescence, overnight; percent of plate control window, DMSO zero; GFP/RFP ratio change, % at 20 µM; actives 0.061% (n = 360,000); AID 651647;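 active = GFP/RFP ratio change of at least 30% with cell ATP level not reduced by more than half and red fluorescence within 50% of control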; note: strong numbers were not always called active
#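 Material – HT1080 RFP-PRO-GFP cells · Control set – DMSO wells and RFP-L50D-GFP cells · Incubation – overnight cell settling, then overnight compound exposure, 37 °C, 5% CO2 · Compound dosing – single-point 20 µM compound, 1% DMSO · Read-out – GFP/RFP fluorescence ratio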
# eIF4H FP inh: inhibitors of RNA binding by human eIF4H; Q15056; eIF4H fluorescence polarization binding assay; inhibition, % at 35 µM; actives 0.94% (n = 290,000); AID 2012;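 active = 50% or more with normal probe brightness, or confirmed in later tests; inconclusive = above 50% with abnormal brightness, or retests that disagree; inactive = below 50% or failed in later tests; about a fifth of its hits are not listed in these tables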;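 note: calls also rest on retests at 20 µM and on dose response follow-up; 0% = protein and probe with vehicle and 100% = probe without protein; strong numbers were not always called active; many hits fall short of the cut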
# PABP polyA inh: PABP-poly(A) binding inhibition | P11940 | actives 1% (n = 290,000) | inhibition, % at 35 µM | PABP-poly(A) RNA binding, fluorescence polarization;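 active = 50% or more with normal probe brightness, or confirmed in later tests; inconclusive = above 50% with abnormal brightness, or retests that disagree; inactive = below 50% or failed in later tests; about a fifth of its hits are not listed in these tables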;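 note: calls also rest on retests at 20 µM and on dose response follow-up; controls were probe without protein and protein plus probe with vehicle; some compounds called inactive have numbers as strong as hits; many hits fall short of the cut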
# Target sequence (P11940 whole entry, looked up): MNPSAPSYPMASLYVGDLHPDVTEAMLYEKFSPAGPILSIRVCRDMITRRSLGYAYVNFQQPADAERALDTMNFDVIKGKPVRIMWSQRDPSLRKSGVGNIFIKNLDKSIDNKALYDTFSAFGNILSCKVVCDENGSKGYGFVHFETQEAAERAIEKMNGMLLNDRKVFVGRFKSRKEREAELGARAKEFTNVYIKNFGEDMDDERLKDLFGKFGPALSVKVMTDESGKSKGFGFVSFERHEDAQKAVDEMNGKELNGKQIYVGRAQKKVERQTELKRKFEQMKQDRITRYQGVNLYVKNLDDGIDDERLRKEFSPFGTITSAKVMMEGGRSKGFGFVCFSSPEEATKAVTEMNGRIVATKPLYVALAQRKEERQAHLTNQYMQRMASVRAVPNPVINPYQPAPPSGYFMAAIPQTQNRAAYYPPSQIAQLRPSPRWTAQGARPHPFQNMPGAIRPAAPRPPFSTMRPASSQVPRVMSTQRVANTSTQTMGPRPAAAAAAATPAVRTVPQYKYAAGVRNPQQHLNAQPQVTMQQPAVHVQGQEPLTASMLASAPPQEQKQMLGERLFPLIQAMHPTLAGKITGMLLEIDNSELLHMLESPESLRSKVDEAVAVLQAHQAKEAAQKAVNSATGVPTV
# CSC inhib: blocks cancer stem cells | cancer stem cell-like cells viability, luminescence | inhibition, % at 7.5 µM | actives 1.1% (n = 300,000) | AID 2717;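 active = mean at 75% or more and at least half the replicates too; inconclusive = mean and replicates disagree; tested in HMLE shEcad cells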;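 note: 0% = median of negative and 100% = median of positive control wells; the first replicate is given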
# Rce1 inhib: yeast Ras-converting enzyme inhibition | calls only | yeast membranes, quenched prenylated peptide cleavage fluorescence | actives 0.27% (n = 290,000) | Q03530 | AID 2563;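 active = fall in fluorescence gain of 50% or more versus controls, with final raw signal at or below 3038400; inconclusive = same 50% fall but final raw signal above 3038400; inactive = fall in fluorescence gain under 50%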;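 note: plate controls were neutral control wells for no effect and wells lacking membranes for full effect; tested at 10 µM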
# Target sequence (Q03530 whole entry, looked up): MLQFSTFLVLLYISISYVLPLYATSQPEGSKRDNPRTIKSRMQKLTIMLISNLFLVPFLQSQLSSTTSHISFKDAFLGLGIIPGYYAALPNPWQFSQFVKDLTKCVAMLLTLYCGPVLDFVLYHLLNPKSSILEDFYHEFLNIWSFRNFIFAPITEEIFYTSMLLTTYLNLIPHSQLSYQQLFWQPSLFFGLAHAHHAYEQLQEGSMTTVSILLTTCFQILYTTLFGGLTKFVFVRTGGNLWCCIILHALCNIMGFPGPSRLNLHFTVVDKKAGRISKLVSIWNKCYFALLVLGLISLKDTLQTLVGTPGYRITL
# eIF4H FP inh retest: also measured in eIF4H FP inh; calls as there; inhibition, %; compound at 20 µM; confirmation average;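 mean of two retest wells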
# PABP polyA inh retest: further read-out of PABP polyA inh, marked with its call; inhibition, %; compound at 20 µM; confirmation repeats;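 mean of two retest wells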
# MT1-MMP act inh RFP: also measured in MT1-MMP act inh; calls as there; RFP signal change, %; measured here: RFP expression control read;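 0 = vehicle wells; hits needed this value within 50% of zero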
# * = called active by the depositor; i = inactive; ? = inconclusive; . = not tested or not shown. The list is partial (hit frequency here may not be typical).
SMILES,UUG fidelity,Env fusion inh,MT1-MMP act inh,MT1-MMP act inh RFP,eIF4H FP inh,PABP polyA inh,CSC inhib,Rce1 inhib,others
CCOC(=O)C(NC(=O)c1ccccc1Cl)(Nc1ccc(C(F)(F)F)cc1)C(F)(F)F (stereo not drawn),.,.,2,3,7,7,9,i,
O=C1N(c2ccccc2)C2CS(=O)(=O)CC2N1c1ccc(Br)cc1 (stereo not drawn),12,.,5,5,13,13,-13,i,
C=CCN1C(=O)C(O)(CC(=O)c2ccc(OC)cc2OC)c2cc(Br)ccc21 (stereo not drawn),6,.,0,0,-6,-1,-5,i,
Cn1c(NC(=O)COc2ccccc2)cc(=O)n(C)c1=O,-6,-5,2,2,-4,5,.,i,
Cc1onc(-c2c(F)cccc2Cl)c1C(=O)OCC(=O)NC(c1ccccc1)c1ccccc1,-14,93*,0,-3,-2,-3,9,i,
CC(=O)c1cc2c(cc1NC(=O)CSc1nc3ccccc3o1)OCO2,-9,.,-1,1,-1,3,18,i,
COC(=O)c1ccc(SCC(=O)NC2CCCCC2)c([N+](=O)[O-])c1,-11,.,5,-4,-10,-9,3,i,
CC(C)c1ccc(C2NC(=O)CCC2[N+](=O)[O-])cc1 (stereo not drawn),.,4,1,3,-10,-1,-9,i,
CCCC1(c2ccccc2)NC(=O)N(CC(=O)NCc2ccc(C)cc2)C1=O (stereo not drawn),4,9,-2,-3,-6,-5,2,i,
Cc1ccc(S(=O)(=O)n2c(=O)oc3ccccc32)cc1,-21,-11,4,1,-1,50,.,i,eIF4H FP inh retest=-2;PABP polyA inh retest=-6
CC(=O)OCC(=O)[C@@]1(O)[C@H](C)C[C@H]2[C@@H]3CCC4=CC(=O)C=C[C@]4(C)[C@@]3(F)[C@@H](O)C[C@@]21C,-5,i,-2,-4,-14,-4,-1,i,
CCCNC(=O)Cn1c(=O)oc2ccccc21,-9,.,3,6,-1,-4,-5,i,
Cc1ccc(-c2ccnc3c(Br)c(C)nn23)cc1,-15,1,2,0,-14,7,14,i,
COC(=O)[C@H](Cc1ccccc1)NC(=O)NCCc1ccc(S(N)(=O)=O)cc1,-18,21,2,5,6,-3,-16,i,
O=C(O)c1cc(-c2cccs2)[nH]n1,-14,12,1,4,4,10,-2,i,
CCn1cc(CNC(=O)NC2CCCCC2)c(C)n1,.,-2,3,10,-7,-4,-16,i,
O=C(CCN1CCc2ccccc2C1)c1ccc2c(c1)OCCO2,-15,.,-2,1,-13,0,15,i,
O=C1CCCC2=C1C(Cc1ccccc1)C1=C(CCCC1=O)O2,2,-29,0,1,-7,-8,.,i,
Cc1noc(C)c1S(=O)(=O)N1CCC(C(=O)N2CCN(Cc3ccc4c(c3)OCO4)CC2)CC1,-5,.,3,-3,2,-11,5,i,
CC1CC(C)CN(C(=O)c2cccc(N3C(=O)c4ccccc4C3=O)c2)C1 (stereo not drawn),4,.,4,1,.,.,-14,.,
O=C(c1cc(-c2ccc(O)cc2)on1)N1CCN(c2ccc(F)cc2)CC1,6,17,-2,-18,0,10,111*,i,
COc1cc2c(cc1OC)C(NC(=O)C(F)(F)F)C/C2=N\O (stereo not drawn),.,4,-7,-2,-11,-13,-15,i,
Cc1cc(C)cc(NS(=O)(=O)c2ccc(Oc3ncc(C(F)(F)F)cc3Cl)cc2)c1,-9,10,-8,-10,-9,2,118*,i,
C#Cc1ccc([C@@H]2C=C(C(=O)N3CCN(Cc4ccc5c(c4)OCO5)CC3)O[C@H](OCC)[C@H]2CCCO)cc1,-10,-19,0,0,-8,-11,11,i,
COc1cccc(NC(=O)CN(C)C(=O)CC2CCCC2)c1,-3,-16,1,0,.,.,.,.,

# An excerpt from above in order of molar mass, rising:
SMILES,UUG fidelity,Env fusion inh,MT1-MMP act inh,MT1-MMP act inh RFP,eIF4H FP inh,PABP polyA inh,CSC inhib,Rce1 inhib,others
Cn1c(NC(=O)COc2ccccc2)cc(=O)n(C)c1=O,-6,-5,2,2,-4,5,.,i,
O=C1CCCC2=C1C(Cc1ccccc1)C1=C(CCCC1=O)O2,2,-29,0,1,-7,-8,.,i,
COC(=O)c1ccc(SCC(=O)NC2CCCCC2)c([N+](=O)[O-])c1,-11,.,5,-4,-10,-9,3,i,
CC1CC(C)CN(C(=O)c2cccc(N3C(=O)c4ccccc4C3=O)c2)C1 (stereo not drawn),4,.,4,1,.,.,-14,.,
CC(=O)c1cc2c(cc1NC(=O)CSc1nc3ccccc3o1)OCO2,-9,.,-1,1,-1,3,18,i,

# Continued.
SMILES,UUG fidelity,Env fusion inh,MT1-MMP act inh,MT1-MMP act inh RFP,eIF4H FP inh,PABP polyA inh,CSC inhib,Rce1 inhib,others
CCn1cc(S(=O)(=O)Nc2ncccn2)cn1,1,18,-3,1,5,4,2,i,
O=S(=O)(c1cccc2nsnc12)N1CCc2ccccc2C1,-14,16,-5,-3,8,-8,-7,i,
CC1CC(C)CN(S(=O)(=O)c2ccc(NC(=O)C3CSC4(C)CCC(=O)N34)cc2)C1 (stereo not drawn),17,-5,1,-5,.,.,-4,i,
O=C(Nc1ccc(F)c(Cl)c1)c1cc(C2CCCN(C(=O)c3cccs3)C2)on1 (stereo not drawn),-14,-7,4,-1,.,.,.,.,
CC(Sc1nnc(-c2cccs2)n1Cc1ccccc1)C(=O)NCc1ccc2c(c1)OCO2 (stereo not drawn),.,.,6,2,8,4,-4,i,
CCCNC(=O)Nc1ccc2c(c1)N(C)C(=O)c1ccccc1S2,-30,16,-1,1,-8,0,-11,i,
Cc1ccnc(NC(=O)c2cc([N+](=O)[O-])cc([N+](=O)[O-])c2)c1,.,24,0,2,1,6,-5,i,
CCOC(=O)c1c(OCCO)noc1N,.,0,2,5,2,-6,-19,i,
CCC1CCCCN1CCCNC(=O)c1cn(C)c2ccc(S(=O)(=O)N3CCOCC3)cc2c1=O (stereo not drawn),-6,-3,-4,2,42,-4,2,i,
O=C(CNC(=O)COc1ccccc1)NCCc1ccccn1,.,8,3,5,4,-8,0,i,
Cc1ccsc1-c1n[nH]c(=S)n1CC(C)C,-18,-7,6,3,-9,-9,-7,i,
O=C(COc1ccccc1)NCC(=O)N/N=C/c1ccc(Br)cc1,-14,1,-2,3,0,-6,13,i,
O=C(O)CCCc1ccccc1,-8,-74,4,4,4,0,.,i,
COCC1CCCN(C(=O)c2cc(COc3ccc4ncccc4c3)on2)C1 (stereo not drawn),-1,?,5,-29,-1,-1,6,i,
Cc1ccc(NC(=O)Cn2cnc([N+](=O)[O-])c2)cc1C,-16,5,6,0,-10,11,-7,.,
O=Cc1ccc2cccnc2n1,.,-2,0,11,8,4,-4,i,
Cc1ccc(NC(=O)C2C3CCCCC32)cc1[N+](=O)[O-] (stereo not drawn),-12,-3,1,2,8,-4,-6,i,
COC(=O)c1cccc(NC(=O)/C=C/c2ccc3c(c2)OCO3)c1,.,-3,5,-8,-2,8,-21,i,
Cc1ccc(C2=NS(=O)(=O)N(C)C(C(=O)NCc3ccccc3)=C2)cc1,-15,7,-2,3,-10,-4,-2,i,
CCOc1ccccc1NC(=O)NC(=O)N(C)S(=O)(=O)c1ccc(C)cc1,.,-3,4,-1,6,-1,-1,i,
O=C1CCCN1c1ccc(S(=O)(=O)NCCc2ccc(Cl)cc2)cc1,.,.,9,-1,1,3,-11,i,
COC(=O)c1ccc(NCCC(=O)O)cc1,1,11,4,1,-8,-3,-6,i,
CCOc1ccc(C(=O)NCC(=O)NC(C)c2ccc(-n3ccnc3)cc2)cc1OCC (stereo not drawn),-19,0,2,1,-6,11,-12,i,
O=C(CN1CCN(CC(=O)Nc2ccc3c(c2)OC2(CCCCC2)O3)CC1)Nc1cccc(F)c1,-43,8,4,-6,.,.,.,.,
CCN1CCN(Cc2coc3ccc(C)cc3c2=O)CC1,-8,15,1,3,7,25,-24,i,

# New compounds follow.
SMILES,UUG fidelity,Env fusion inh,MT1-MMP act inh,MT1-MMP act inh RFP,eIF4H FP inh,PABP polyA inh,CSC inhib,Rce1 inhib,others
COc1ccc(CC(=O)OCC(=O)Nc2cc(S(=O)(=O)N3CCOCC3)ccc2N2CCCC2)cc1,.,4,-2,3,7,9,2,i,
CC(C(=O)NC(C)(C)C)N1C(=O)c2cccc3cccc(c23)C1=O (stereo not drawn),.,-6,-4,0,16,-1,1,i,
CCOc1cc(/C=N/NC(=O)c2cc(-c3cccnc3)nc3ccccc23)ccc1O,-9,5,-4,-2,-4,1,-5,i,
O=C(Nc1nccs1)c1cccc(S(=O)(=O)N2CCCC2)c1,-7,13,-1,-6,3,-3,-4,i,
O=C1CN(c2ccccc2F)C(=O)CN1c1ccccc1F,-16,9,-3,3,6,-2,-11,i,
CC(Oc1ccccc1)c1ccnn1S(C)(=O)=O (stereo not drawn),-6,.,-3,1,-3,-4,-5,i,
O=C(c1ccccn1)N(c1ccccc1)C1(C(=O)NC2CCCCC2)CCCCC1,.,-5,0,1,2,-4,-5,i,
O=C(NCc1cn2ccccc2n1)c1ccc(Br)o1,-3,-16,-3,0,-3,-3,2,i,
Cc1ccccc1/C=C/c1nc2ccccc2c(=O)n1Cc1ccccc1,.,5,1,3,4,-1,24,i,
COc1cc(/C=C/C(=O)O)cc(S(=O)(=O)NCCO)c1OC,-16,-13,1,3,-20,-11,.,i,
Nc1ncc2c(n1)-c1ccoc1CC2,-8,-7,-5,-2,28,7,0,i,
CC(C)(C)c1nc2c(s1)CCc1onc(-c3ccc(Br)cc3)c1-2,-24,-23,5,0,.,.,44,i,
Cc1cc(C(=O)NNc2ccc(F)cc2)no1,-42,-15,0,2,-7,-5,96*,i,
Cc1ccc([N+](=O)[O-])cc1NC(=S)NC(=O)c1ccco1,-15,-25,-1,-2,-1,0,-7,i,
COc1ccc(COc2cc(-c3cccc(OC)c3)nc3ccc(N)cc23)cc1,-11,-163,26,3,13,0,46,i,
COCCCNC(=O)CCCC(=O)NCCCOC,-9,7,-2,-3,-4,-6,-22,i,
O=C(O)C(Cc1ccccc1)N1C(=O)c2ccccc2C1=O (stereo not drawn),-41,-17,0,-2,0,-5,-8,i,
O=C(O)C1C2C=CC(C2)C1C(=O)NCCCN1CCOCC1 (stereo not drawn),-30,.,5,7,6,-8,.,i,
CCC(=O)Nc1ccc2c(c1)OCCO2,-16,-13,-1,0,-4,-1,-5,i,
CCOC(=O)CNS(=O)(=O)c1cc(-c2nnc(Nc3ccc4c(c3)OCO4)c3ccccc23)ccc1C,.,.,-8,-1,-2,2,7,i,
COc1ccc([N+](=O)[O-])cc1NC(=O)c1cccs1,.,-31,-3,-2,0,-10,0,i,
O=[N+]([O-])c1ccc(S(=O)(=O)NCCN2CCOCC2)cc1,.,-3,1,1,1,-12,11,i,
CCc1ccccc1NC(=O)NCc1ccccn1,-2,-3,2,0,-10,-4,-7,i,
Cc1cc(C)c2c(=O)[nH]c(SCC(=O)N3CCOCC3)nc2n1,.,-6,0,2,-4,-9,-4,i,
CC1(NC(=O)c2cccc(S(=O)(=O)N3CCCc4ccccc43)c2)CCS(=O)(=O)C1 (stereo not drawn),8,-1,-4,-6,.,.,.,.,
Cn1c(=O)[nH]c(=O)c2[nH]c(CO)nc21,-8,-4,3,4,.,.,.,.,
Oc1ccccc1CNCc1ccccc1,.,7,2,2,-8,-7,-11,i,
Cc1cc2cc(CN(Cc3nnnn3C3CCCCC3)CC3CCCO3)c(=O)[nH]c2cc1C (stereo not drawn),.,.,0,-3,-14,16,-20,i,
Cc1ccccc1CSCC(=O)Nc1ccccc1F,-5,-15,-1,-2,13,7,-3,i,
